Source: PubChem BioAssay (several laboratories)
Autofluor counter – compound fluorescence in toxin protease inhibitor counterscreen; compound autofluorescence counterscreen, microsphere flow cytometry; active compounds read high; fluorescence intensity (concentration not given with the values); AID 624483; hit rate 3.1% among 360,000;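 active means at least 3 SD above the mean of all compounds, about 16000 in these data; inconclusive means too few beads counted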;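 further: 100 nL of 1 mM stock went into each well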
ugtP null kill – growth inhibition of ugtP-null S. aureus, primary screen, RN4220 ugtP deletion, OD600. 16 h; some inactives read as strong as hits. growth inhibition, % (test concentration not listed). hit rate 0.54% among 330,000. AID 1259309, 2017;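 active means z-score under -3 and OD600 up to 0.15 on both plates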;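 further: plate controls were untreated wells for no effect and antibiotic for full effect; wells of about 80 µL received 100 nL stock; the first replicate is given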
Sa RN4220 lethal – growth inhibition of S. aureus RN4220, primary screen, OD600; 16 h; inhibition, % (concentration not given with the values); hit rate 0.33% among 330,000;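 active means z-score of -3 or lower and OD600 up to 0.18 on both plates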;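 further: plate controls were untreated cells for no effect and reference antibiotic for full effect; stock transfer was 100 nL into about 80 µL; one replicate is shown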
BJeLR viability – MLPCN primary cell-based screen for lethality selective to Ras in HRASV12 cells; hit rate 0.17% among 300,000; inhibition, % (no concentration beside the values); BJeLR (HRASV12) viability, CellTiter-Glo ATP luminescence, 48 h; reference of the scale not given here;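 active means replicate mean above 50%; inconclusive means above 50% but judged a plate artefact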;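 further: 50 nL library stock added to about 25 µL; numbers are from one replicate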
PrP UTR inh – inhibition of PrP 5' UTR reporter expression; cell-based PrP 5' UTR mRNA reporter, plate reader; inhibition, % (concentration not given with the values); hit rate 0.35% among 340,000;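 active means every replicate at 50% or more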;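 further: 0 = median of the neutral control wells; tested in H4 reporter cells; numbers are from one replicate; inactives centre near -14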
Mtb hypoxia rep – PubChem AID 1159583; hit rate 0.1% among 300,000; fluorescence inhibition, % (test concentration not listed); M. tuberculosis hypoxia-regulated fluorescent reporter, fluorescence;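 active means 35 to 45% if threefold the growth effect, above 45% if 1.5-fold the growth effect; inactive means the rest, general growth blockers included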;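 further: wells of about 50 µL received 100 nL stock; 0% = vehicle wells and 100% = reference inhibitor wells; whole bacteria with a GFP reporter of the hypoxia response; strong numbers were not always called active; many hits fall short of the cut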
Mtb hypoxia rep growth – further read-out of Mtb hypoxia rep, marked with its call; growth inhibition, %; measured here: M. tuberculosis growth (absorbance);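 0% = vehicle and 100% = reference antibiotic; read after six days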
* = called active by the depositor; ? = inconclusive; . = not tested or not shown; & = joins results of further samples.

cpd	smiles	Autofluor counter	ugtP null kill	Sa RN4220 lethal	BJeLR viability	PrP UTR inh	Mtb hypoxia rep	Mtb hypoxia rep growth
1	CSc1ccccc1NC(=O)CN(C)Cc1c(O)ccc2ccccc12	3849	-4	-4.9	-8	1	-9	0
2	Cc1ccc(OCCCCc2c(C)n[nH]c2C)cc1	?	-4	6.3	1	-14	7	2
3	CCCOc1ccc(/C(O)=C2/C(=O)C(=O)N(c3ccccn3)C2c2ccc(OC)cc2)cc1C (configuration not stated)	3607	-3	5.1	3	-22	-2	-9
4	c1ccc(NC2=NCCS2)cc1	?	0	0.9	-2	-3	9	4
5	Cn1c(NC(=O)c2ccccc2)c(-c2cccs2)c(=O)c2ccccc21	10724	-3	3.4	-8	-8	4	1
6	CN(C(=O)c1ccccc1Cl)C1CCCCC1	11108	6	0.0	.	-48	5	12
7	Nc1ccc2oc(CCc3ccccc3)nc2c1	3761	7	8.9	-1	-75	8	9
8	CCn1cc([N+](=O)[O-])c(C(=O)N2N=C3/C(=C/c4cccs4)CCCC3C2c2cccs2)n1 (configuration not stated)	21392*	-11	-1.9	-1	-12	-10	9
9	Cc1ccc2c(c1)N(C(=O)CCC(=O)NCc1ccccn1)CC(C)O2 (configuration not stated)	6246	3	-11	-7	-20	7	5
10	CSC(=NS(=O)(=O)c1ccc(C)cc1)c1ccccc1	.	6	3.9	.	.	6	2

Two of the compounds above, as labelled records.
(7) Nc1ccc2oc(CCc3ccccc3)nc2c1
  Autofluor counter = 3761	ugtP null kill = 7	Sa RN4220 lethal = 8.9	BJeLR viability = -1	PrP UTR inh = -75	Mtb hypoxia rep = 8	Mtb hypoxia rep growth = 9
(9) Cc1ccc2c(c1)N(C(=O)CCC(=O)NCc1ccccn1)CC(C)O2 (configuration not stated)
  Autofluor counter = 6246	ugtP null kill = 3	Sa RN4220 lethal = -11	BJeLR viability = -7	PrP UTR inh = -20	Mtb hypoxia rep = 7	Mtb hypoxia rep growth = 5

(list continues)
cpd	smiles	Autofluor counter	ugtP null kill	Sa RN4220 lethal	BJeLR viability	PrP UTR inh	Mtb hypoxia rep	Mtb hypoxia rep growth
11	COc1ccc2[nH]c3c(c2c1)CCN1C(=O)C(CC(=O)NCCN2CCOCC2)C[C@H](C(=O)N2CCCCC2)[C@@]31C (some centres not stated)	3702	6	4.5	.	-13	-10	3
12	CC(NC(=O)C1CCC(CNc2c(N3CCOCC3)c(=O)c2=O)CC1)c1ccccc1 (configuration not stated)	5506	15	7.4	-11	-10	0	1
13	COc1ccc(C(=O)COC(=O)[C@H](C)NS(=O)(=O)c2ccc(NC(C)=O)cc2)cc1OC	3771	2	3.2	.	-8	-2	8
14	O=C(O)c1cccc(N2C(=O)/C(=C/c3ccc([N+](=O)[O-])cc3)C=C2c2ccccc2)c1	2402	10	5.2	-1	-10	-1	9
15	CC(=O)c1ccc(NC(=O)C(C)N(C)CC(=O)Nc2ccc(N3CCOCC3)cc2)cc1 (configuration not stated)	4286	.	.	-6	-47	.	.
16	Cc1onc(-c2ccccc2)c1C(=O)N1CCN(c2ccccn2)CC1	6465	4	2.9	8	-13	4	5
17	CCOC(=O)Cc1csc(NC(=O)CSc2cc(Cl)ccc2Cl)n1	7038	-9	-3.8	-2	-10	-8	-5
18	COc1ccc(C(=O)NCC(c2ccco2)N2CCc3ccccc32)cc1 (configuration not stated)	?	5	-5.0	20	-36	6	3
19	O=C(CCNS(=O)(=O)c1cccc2nsnc12)N1CCN(c2ccccn2)CC1	2621	-2	1.5	16	-20	.	.
20	O=C(NC(Nc1ccccn1)C(Cl)(Cl)Cl)c1ccccc1 (configuration not stated)	2804	1	1.3	2	-8	-18	-16

The results go on:
cpd	smiles	Autofluor counter	ugtP null kill	Sa RN4220 lethal	BJeLR viability	PrP UTR inh	Mtb hypoxia rep	Mtb hypoxia rep growth
21	Cc1ccc(C)c(-n2c(CNc3ccc(F)cc3)nnc2SCC(N)=O)c1	10455	5	12	1	-30	17	7
22	COc1ccc(C2C(C(C)=O)=C(C)N=c3s/c(=C\c4ccco4)c(=O)n32)c(OC)c1 (configuration not stated)	?	.	.	-6	-11	.	.
23	COCCOC1CCN(C(=O)c2cc(COc3ccc(F)cc3F)on2)CC1	5806	6	1.4	-9	0	2	0
24	CC(C)(CO)NS(=O)(=O)c1ccc2c(c1)oc(=O)c1cc(S(=O)(=O)NC(C)(C)CO)ccc12	2598	-4	1.5	9	15	.	.
25	Cc1cc(C(=O)COC(=O)CC2Sc3ccccc3NC2=O)c(C)n1-c1ccccc1 (configuration not stated)	2009	19	-3.8	-4	-15	10	7
26	COc1ccc(/C=N/NC(=O)c2cc(-c3ccc4c(c3)OCO4)n[nH]2)cc1OC	2286	.	.	-2	-42	.	.
27	CC1(C)Cc2c(c(-c3ccco3)nc3sc4c(NCCO)ncnc4c23)CO1	2509	-44	10	4	-1	6	-5
28	CC(C)(O)C#Cc1ccc(C(=O)N2CCC(C(N)=O)(N3CCCCC3)CC2)cc1	3275	4	1.5	0	3	.	.
29	CC(=O)Nc1ccc(SCC(=O)NC(=O)c2ccc(S(=O)(=O)N(C)C)cc2)cc1	3800	4	6.3	.	-9	8	6
30	CC1CCN(C(=O)c2ccc(-n3cnnn3)cc2)CC1	4807	12	0.7	0	-22	.	.

Going on with the list:
cpd	smiles	Autofluor counter	ugtP null kill	Sa RN4220 lethal	BJeLR viability	PrP UTR inh	Mtb hypoxia rep	Mtb hypoxia rep growth
31	CN(C)/C=C1/NC(=S)NC1=O	4554	3	-7.2	-1	-15	12	-4
32	CC(=NNC(=O)C1(C)NC(C)(C)Cc2ccccc21)c1ccccc1 (configuration not stated)	.	-1	4.3	.	.	2	1
33	N#Cc1c(C(F)(F)F)cc(-c2ccc(F)cc2)nc1SCC(=O)O	4531	10	4.4	-4	-34	-4	5
34	Cc1cc(SC(C)C(=O)Nc2c(C)n(C)n(-c3ccccc3)c2=O)nc2ccccc12 (configuration not stated)	3818	-1	5.1	-7	-18	8	11
35	CC(C)CC(=O)Nc1cc(NC(=O)CC(C)C)cc(C(=O)NC(C)(C)C)c1	2619	5	3.1	-4	-14	.	.
36	Cn1cccc1Cc1nnc(SCC(=O)NC2CCCCC2)n1CCc1ccccc1	4484	11	0.5	0	-11	.	.
37	CCC(C)(C)n1nnnc1C(c1ccc(C)cc1)N1CCC(C)CC1 (configuration not stated)	4418	6	11	5	-27	4	7
38	CCc1cc2c(CN3CCN(Cc4ccccc4)CC3)cc(=O)oc2cc1O	3895	-2	-0.3	9	-10	-3	17
39	O=C(Cn1nc(Cc2ccncc2)c2ccccc2c1=O)N1CCN(C(=O)c2ccco2)CC1	4212	-1	1.7	-15	-19	.	.
40	CCCc1ccc(S(=O)(=O)Nc2ccc(C)c(NS(C)(=O)=O)c2)cc1	3722	1	3.8	5	-10	-4	-9

More structures:
cpd	smiles	Autofluor counter	ugtP null kill	Sa RN4220 lethal	BJeLR viability	PrP UTR inh	Mtb hypoxia rep	Mtb hypoxia rep growth
41	CCN(CC(=O)Nc1cc(Cl)ccc1C)C(=O)Cc1sc(C)nc1-c1ccc(F)cc1	.	7	2.6	0	-8	3	-3
42	O=C1c2c(O)cc(O)cc2O[C@H](c2ccc(O)cc2)[C@H]1O	5449	3	-1.3	-1	-11	.	.
43	CCC1(C2=NCCN2)Cc2ccccc2O1 (configuration not stated)	5725	3	3.2	.	-7	5	-1
44	CCOC(=O)CSC1=N/C(=C\c2cc(OC)c(OC)c(OC)c2)C(=O)N1C	2197	2	-4.8	4	-23	3	1
45	CC(C)(C)CNc1cc(N2CCOCC2)ccc1[N+](=O)[O-]	4446	7	-1.0	3	-23	6	11
46	O=C(Nc1ccccc1-c1nnc(SCc2ccc(Cl)cc2Cl)o1)c1ccccc1	1937	-1	-0.8	-4	-16	12	6
47	CCc1nn(C)c2c(=O)c(=O)c2n(C)[nH]1	6356	7	3.7	-5	-17	13	12
48	CC(NC(=O)c1cccs1)C(c1cccs1)N1CCOCC1 (configuration not stated)	10378	4	1.1	0	-35	8	3
49	CCn1c(C)c(C(C)=O)c(N2CCN(c3ccccc3)CC2)nc1=S	3921	6	3.2	-11	-21	.	.
50	O=C(O)CCCCCN1C(=O)CSC1=S	4102	4	3.5	4	-22	.	.

The listing continues.
cpd	smiles	Autofluor counter	ugtP null kill	Sa RN4220 lethal	BJeLR viability	PrP UTR inh	Mtb hypoxia rep	Mtb hypoxia rep growth
51	Cc1ccccc1Nc1nc(N)nc(CCl)n1	4259	3	2.3	67*	-21	.	.
52	CCCN(CCC)CCNC(=O)c1cc2c(-c3ccccc3F)nn(C)c2s1	4314	9	0.4	6	2	-14	2
53	Cc1c(Cl)ccc2c(C(=O)NCCCn3nccc3C)cc(-c3ccccn3)nc12	4550	2	0.6	-3	-15	3	-1
54	Cc1ccc(CNC(=O)C2CCC(=O)N(C3CC3)C2)cc1 (configuration not stated)	5443	3	5.0	-1	-6	4	-5
55	COc1ccccc1-c1noc(COC(=O)c2ccc(Br)o2)n1	?	-2	0.3	.	-1	-8	7
56	CCn1c(C=NNC(=O)c2ccc(OC)cc2)nc2ccccc21	.	0	7.5	.	.	-5	14
57	Cc1cc(C(=O)N/N=C/c2sccc2C)no1	2030	.	.	12	-31	.	.
58	Cc1ccc(NC(=S)N=Nc2c(O)[nH]c3ccccc23)cc1	4368	-26	12	-6	12	-5	6
59	COc1ccc(S(=O)(=O)Nc2ccccc2)cc1	5590	9	7.6	-3	-20	15	-10
60	CCOc1cc(N2CCOCC2)c(OCC)cc1NC(=O)CN1C(=O)N(C)C2(CCCCC2)C1=O	2814	8	4.4	.	-15	5	0

Next part
cpd	smiles	Autofluor counter	ugtP null kill	Sa RN4220 lethal	BJeLR viability	PrP UTR inh	Mtb hypoxia rep	Mtb hypoxia rep growth
61	O=C(CCN1CCOCC1)NNC(=O)c1ccc(Cl)c([N+](=O)[O-])c1	4165	3	2.0	.	-20	15	7
62	CCCNS(=O)(=O)c1ccc(CCC(=O)N2CCOCC2)cc1	4602	5	3.2	5	2	4	0
63	COc1ccc(CCNC(=O)C(C)n2nc(C)n3c(cc4occc43)c2=O)cc1OC (configuration not stated)	6489	-1	3.2	6	-10	3	-1
64	Cc1cccc(NC(=S)N/C(=N/S(=O)(=O)c2ccccc2)c2ccccc2)c1	3485&4463	-15	8.1	27	-28&-42	5	11
65	CCN(CC)c1ccc(C=NNC(=S)NCc2ccco2)cc1	.	3	7.9	.	.	9	1

Among those listed so far, these have an aryl thioether with sulfur outside any ring:
cpd	smiles	Autofluor counter	ugtP null kill	Sa RN4220 lethal	BJeLR viability	PrP UTR inh	Mtb hypoxia rep	Mtb hypoxia rep growth
1	CSc1ccccc1NC(=O)CN(C)Cc1c(O)ccc2ccccc12	3849	-4	-4.9	-8	1	-9	0
17	CCOC(=O)Cc1csc(NC(=O)CSc2cc(Cl)ccc2Cl)n1	7038	-9	-3.8	-2	-10	-8	-5
21	Cc1ccc(C)c(-n2c(CNc3ccc(F)cc3)nnc2SCC(N)=O)c1	10455	5	12	1	-30	17	7
29	CC(=O)Nc1ccc(SCC(=O)NC(=O)c2ccc(S(=O)(=O)N(C)C)cc2)cc1	3800	4	6.3	.	-9	8	6
33	N#Cc1c(C(F)(F)F)cc(-c2ccc(F)cc2)nc1SCC(=O)O	4531	10	4.4	-4	-34	-4	5
34	Cc1cc(SC(C)C(=O)Nc2c(C)n(C)n(-c3ccccc3)c2=O)nc2ccccc12 (configuration not stated)	3818	-1	5.1	-7	-18	8	11
36	Cn1cccc1Cc1nnc(SCC(=O)NC2CCCCC2)n1CCc1ccccc1	4484	11	0.5	0	-11	.	.
46	O=C(Nc1ccccc1-c1nnc(SCc2ccc(Cl)cc2Cl)o1)c1ccccc1	1937	-1	-0.8	-4	-16	12	6

The order is random (roughly 3.9% active in at least one column).
